# Source: PubChem BioAssay
# 2A StopGo – FMDV 2A StopGo reporter, luciferase signal. Potency, µM (series often up to 57.9 µM), inactives show top-dose signal change, negative = less light. human cells with a luciferase reporter of 2A StopGo recoding; control for the full effect not named in the record. 410,000 tested, 1.2% active. AID 1159524; active = well fitted falling curve with a large enough effect; inconclusive = small, poorly fitted or top-dose-only effect; inactive = no such curve, though single readings can be large or run the other way; tested in HEK293T cells; further: on the % scale 0 is the no-effect control and ±100 the full control effect; nearly all actives have a fitted effect of over 45% in size; luciferase light after 4 h
# RE007 growth inh – less growth of the S. pombe RE007 Vpr strain; S. pombe RE007 Vpr strain, BacTiter-Glo ATP luminescence, 24 h; control for the full effect not named in the record; AID 651644; 360,000 tested, 0.21% active; Potency, µM (series often up to 92.2 µM), for inactives: at the highest dose activity change, negative = less growth; active = well fitted falling curve with a large enough effect; inconclusive = small, poorly fitted or top-dose-only effect; inactive = no such curve, though single readings can be large or run the other way;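 further: on the % scale 0 is the no-effect control and ±100 the full control effect; nearly all actives have a fitted effect of over 50% in size; the assay follows cell death caused by Vpr and the record does not say whether a fall means rescue or toxicity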
#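 Fission yeast strain RE007, carrying one chromosomally integrated HIV-1 vpr copy, was seeded at OD 0.01 in PMG+AL medium with 23 nL pinned compound. After 24 h at 30 °C and 99% humidity, viability was read by BacTiter-Glo luminescence.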
# SARS PLpro yeast – SARS-CoV PLP inhibition in yeast; S. cerevisiae expressing SARS-CoV PLpro, growth rescue; control for the full effect not named in the record; Potency, µM (titrated, usually from 32.9 µM), for inactives: at the top dose activity, positive = growth rescue; 330,000 tested, 0.19% active; active means well fitted rising curve with a large enough effect; inconclusive means small, poorly fitted or top-dose-only effect; inactive means no such curve, though single readings can be large or run the other way; further: 0% is about no effect; nearly all actives have a fitted effect of over 55% in size; growth read by luminescence after 48 h
# An asterisk follows results filed as active; ? = inconclusive; & = joins results of further samples; [ ] = another dose, or the depositor's remark. Potency means the concentration at half of the fitted maximal effect. This is a subset; the hit share may differ from the screen's.
# Values in the order: 2A StopGo, RE007 growth inh, SARS PLpro yeast
> C[C@H](CO)N1C[C@H](C)[C@@H](CN(C)CC2CCCCC2)Oc2ccc(NC(=O)CCN3CCOCC3)cc2C1=O
    20%, -2%, -7%
> CN(CCOc1ccc(Cl)cc1)C(=O)C1=CC=CN2CCS(=O)(=O)N=C12
    11%, -5%, 6%
> CC[C@@]1(C(=O)OC)N[C@H](CN(C)S(=O)(=O)c2ccc(OC(F)(F)F)cc2)[C@@H]2C(=O)N(C)C(=O)[C@@H]21
    -22%, 10%, -2%
> N#Cc1cccc(NC(=O)CSc2nnc(C3CC3)n2C2CC2)c1
    4%, 10%, 4%
> COc1ccc(C2=NOC(CNC(N)=S)C2)cc1 (stereo not drawn)
    64%[activator], -8%, -3%
> C[C@H]1CN([C@@H](C)CO)C(=O)Cc2cc(NC(=O)Cc3ccccc3)ccc2O[C@H]1CN(C)C(=O)Nc1cccc2ccccc12
    -14%, -9%, 0%
> O=C(NC(Cc1cccc(F)c1)C(=O)O)C1CCCCC1 (stereo not drawn)
    -14%, -2%, 2%
> CCc1nnc(NC(=O)C2CCN(c3ncnc4sc(C)c(C)c34)CC2)s1
    ?, -5%, 2%
> O=C(NN1C(=O)c2ccccc2C1=O)c1ccccc1[N+](=O)[O-]
    -11%, -10%, -1%
> COc1cc2c(-c3ccc4cc[nH]c4c3)c(-c3ccsc3)oc(=O)c2cc1OC
    11%, -7%, -2%

# Next structures.
# Values in the order: 2A StopGo, RE007 growth inh, SARS PLpro yeast
> O=C(COC(=O)c1nc(Cl)ccc1Cl)Nc1ccc(Cl)cc1
    -2%, -9%, -6%
> CN(C(=O)CSc1nc2sc3c(c2c(=O)n1C)CCC3)C1CCS(=O)(=O)C1 (stereo not drawn)
    -28%, -6%, -3%
> CCOc1ccc(CN(C)C(=O)c2ccc(S(=O)(=O)N(C)c3ccccc3OC)cc2)cc1
    22µM*, 5%, -14%
> CN(C)C(CNC(=O)c1ccc2nc[nH]c2c1)c1ccccc1 (stereo not drawn)
    14%, -12%, -1%
> COc1cc(NCc2ccccc2)c2ncn(Cc3ccccc3)c2c1
    -19%, 0%, 4%
> CCOC(=O)[C@@H]1[C@H]2COc3ccc(Br)cc3[C@H]2N2C(=O)N(c3ccc(C)cc3)C(=O)[C@@]12C
    -1%, -2%, -5%
> CCN(CC)CCN(C(=O)c1ccc([N+](=O)[O-])cc1)c1nc2ccc(OC)cc2s1
    11%, -5%, 5%
> Cc1cc(NC(=O)CN2C(=O)NC(c3ccccc3)(c3ccc(C)c(C)c3)C2=O)no1 (stereo not drawn)
    38%[activator], -6%, 0%
> COc1ccc(/C=C/C(=O)OCC(=O)NCc2ccccc2)cc1OC
    -24%, 5%, 0%
> CSc1nc(N)nc2c1ncn2CC(=O)N[C@H](CO)Cc1c[nH]c2ccccc12
    0%, 0%, 0%

# Additional structures
# Values in the order: 2A StopGo, RE007 growth inh, SARS PLpro yeast
> CC(OC(=O)C1CC1)C(=O)Nc1ncc(Cl)cc1Cl (stereo not drawn)
    4%, -3%, 2%
> Cn1c(Cc2nc3ccccc3n2C)nc2ccccc21
    18%, 10%, 5%
> CC(C)NC(=O)[C@]1(C)CCC[C@@]2(C)C3CC[C@@]4(C)C[C@]3(CCC21)CC4=O (stereo partly drawn)
    -16%, 31%, -3%
> CSCCC(NS(=O)(=O)c1ccccc1F)C(=O)NCc1cccs1 (stereo not drawn)
    -8%, -19%, 0%
> COc1ccc(NC(=O)CSc2ncccn2)cc1S(=O)(=O)N1CCCCC1
    -4%, 5%, -7%
> Cc1ccc([C@@H]2CC=C(C(=O)O)[C@H](c3ccccc3F)N2S(=O)(=O)c2ccccc2C)cc1
    -4%, -4%, -1%
> O=C(N/N=C/c1ccccc1)c1ccc(OCc2ccccc2)cc1
    27%, 9%, -1%
> Cc1cccc(N2N=C(C(=O)N3Cc4ccccc4CC3C(N)=O)CCC2=O)c1 (stereo not drawn)
    -15%, -3%, 3%
> O=C(C[C@H]1C/C=C\C[C@H](NC(=O)OCC2c3ccccc3-c3ccccc32)C(=O)O[C@H](c2ccccc2)CNC1=O)N[C@H](CO)Cc1ccccc1
    0%, -2%, -9%
> Cc1nnc(SCC(=O)c2c(N)n(C3CC3)c(=O)[nH]c2=O)n1-c1ccccc1
    -13%, -4%, -4%

# Continued.
# Values in the order: 2A StopGo, RE007 growth inh, SARS PLpro yeast
> C=CC[C@@H](CC(=O)OC(C)(C)C)C(=O)OC[C@H]1CCCN1C(=O)[C@@H](CC=C)CC(=O)N(CCO)Cc1ccccc1
    0%, 7%, 9%
> O=C(COc1ccc([N+](=O)[O-])cc1Cl)N1CCc2ccccc21
    39%[activator], 3%, -2%
> Cn1c(=O)c2c(ncn2CC(=O)OCC(=O)Nc2ccc(F)cc2F)n(C)c1=O
    -8%, -28%, 3%
> COc1cc(C#Cc2c(-c3ccccc3OC)oc3ccccc23)cc(OC)c1
    -7%, -9%, -7%
> Cc1cc(C)n(-c2ccc(C(=O)OCC(=O)Nc3cc(S(C)(=O)=O)ccc3Cl)cc2)n1
    -3%, -5%, -4%
> C[C@@H]1O[C@@H](Oc2c(-c3ccc(O)c(O)c3)oc3cc(O)cc(O)c3c2=O)[C@H](O)[C@H](O)[C@H]1O
    ?, 14%&9%, -6%
> Cc1c(NC(=O)CSc2nnc(-c3cccnc3)n2N)c(=O)n(-c2ccccc2)n1C
    -2%, 16%, 0%
> COc1cc2cncc(Cc3ccc(Cl)cc3)c2cc1OC
    ?, -13%, 0%
> CCOc1ccc(OCCC(=O)OCC(=O)NC2CCCC2)cc1
    -5%, -10%, 9%
> CC(C)(C)NC(=O)C(OC(=O)c1cccs1)c1ccc(F)cc1 (stereo not drawn)
    6%, -9%, -1%

# Additional entries
# Values in the order: 2A StopGo, RE007 growth inh, SARS PLpro yeast
> CC(OC(=O)c1ccccn1)C(=O)Nc1ccc2c(c1)OCCO2 (stereo not drawn)
    11%, 6%, 9%
> O=C(COC(=O)CCS(=O)(=O)c1ccc(F)cc1)NC1CCCCC1
    -20%, -11%, 2%
> O=C(Nc1ccc(Cl)cc1)c1nc[nH]c1C(=O)NCc1ccccc1
    -27%, 2%, -3%
> CCOC(=O)C1=C(C)Nc2ccccc2N/C1=N\S(=O)(=O)c1ccc(Cl)cc1
    ?, -2%, -3%
> N#CCC(=O)Nc1ccc(C(=O)NNC(=O)CCN2CCN(c3ccccc3)CC2)cc1
    -15%, 4%, 2%
> CC1CCCC(C)N1C(=O)COC(=O)c1cccnc1Cl (stereo not drawn)
    14%, 25%, -6%
> Cc1ccc(NC(=O)CN(C)C(=O)C(Sc2ccccc2)c2ccccc2)cc1 (stereo not drawn)
    ?, 1%, 0%
> Cc1ccc([C@@H]2CC=C(C(=O)O)CN2S(=O)(=O)c2ccccc2C)cc1
    0%, -11%, 1%
> Cc1noc(C)c1NC(=O)N(C)C[C@H]1Oc2ccc(NS(=O)(=O)c3c(C)noc3C)cc2C(=O)N([C@H](C)CO)C[C@@H]1C
    11%, 22%, -6%
> CCOC(=O)c1[nH]c(C)c(C(=O)OCC(=O)NC(C)c2ccc(F)cc2)c1C (stereo not drawn)
    -10%, -9%, -3%

# The list goes on:
# Values in the order: 2A StopGo, RE007 growth inh, SARS PLpro yeast
> Cc1cc(C(=O)COc2cccc([N+](=O)[O-])c2)c(C)n1C1CC1
    19%, -11%, -3%
> C=CC[C@H](CC(=O)N(CCO)Cc1ccccc1)C(=O)N[C@H](COC(=O)[C@@H](CC=C)Cc1ccc(F)cc1)Cc1ccccc1
    ?, 0%, 0%
> CN(CC(=O)Nc1ccc(F)cc1)C(=O)Cn1cnc2ccc(Cl)cc2c1=O
    ?, -1%, -1%
> COc1ccc2[nH]cc(S(=O)(=O)c3ccc(C(C)C)cc3)c(=O)c2c1
    49%[activator], 13%, 1%
> C[C@H](CO)N1C[C@H](C)[C@@H](CN(C)S(C)(=O)=O)Oc2ccc(NC(=O)C3CCCCC3)cc2C1=O
    10%, 15%, -5%
> CC(=O)c1ccc(NC(=O)C(NC(=O)c2ccccc2)=C(C)C)cc1
    -13%, -4%, -2%
> Cc1cccc(NC(=O)CNC(=O)Cc2ccc3c(c2)OCCO3)c1C
    7%, 7%, 4%
> CCn1c(SC)nc2cc(S(=O)(=O)N3CCCCC3)ccc21
    -9%, 34%, 0%
> CC(C)NC(=O)N(C)C[C@H]1Oc2c(NC(=O)Nc3ccc(C(F)(F)F)cc3)cccc2C(=O)N([C@H](C)CO)C[C@@H]1C
    -11%, 8%, 11%
> COC1=C(OC)[C@]23CCc4ccc(OC)c(OC)c4[C@]2(CCN3C)CC1=O
    -5%, -8%, 3%

# (continued)
# Values in the order: 2A StopGo, RE007 growth inh, SARS PLpro yeast
> O=[N+]([O-])c1ccccc1CNCCO
    -20%, -12%, -5%
> C[C@H](CO)N1C[C@H](C)[C@@H](CN(C)C(=O)Nc2ccc3c(c2)OCO3)Oc2c(NC(=O)Nc3ccc4c(c3)OCO4)cccc2C1=O
    16%, -20%, 1%
> O=C(Cc1cccc([N+](=O)[O-])c1)Nc1ccc(C(=O)N2CCOCC2)cc1
    -10%, -4%, 0%
> O=C1C=C(c2ccc(Oc3ccccc3)cc2)C[C@@H](c2ccc(F)cc2)C1
    -24%, -5%, 5%
> CC(C)[C@H](NC(=O)c1ccccc1F)C(=O)Nc1ccc2c(c1)OCO2
    27%, -8%, 2%
> CSCCC(NC(=O)COc1ccccc1)C(=O)N(C)Cc1ccc(SC)cc1 (stereo not drawn)
    3%, 4%, -7%
> C=COCCNC(=S)N1CCOCCOCCN(C(=S)NCCOC=C)CCOCC1
    -10%, -1%, 2%
> C#CCOCCOCCOCCNc1nc(N2CCN(C(=O)[C@H]([C@@H](C)CC)n3cc(CCCCN)nn3)CC2)nc(N2CCN(C(=O)[C@H](CCCCN)n3cc(CC(C)O)nn3)CC2)n1 (stereo partly drawn)
    -13%, 2%, 2%
> CC1CC(C)CN(S(=O)(=O)c2cccc(C(=O)N3CCN(c4ccc(F)cc4)CC3)c2)C1 (stereo not drawn)
    -10%, 5%, 2%
> O=C(Nc1c(F)cc(F)cc1Br)c1cc(S(=O)(=O)N2CCN(c3ccccn3)CC2)ccc1F
    ?, 2%, 0%

# Next section
# Values in the order: 2A StopGo, RE007 growth inh, SARS PLpro yeast
> Cc1onc(C(=O)Nc2sc3c(c2C#N)CCCC3)c1[N+](=O)[O-]
    44%[activator], 2%, -12%
> CCCCn1c(SCC(=O)NC(=O)Cc2ccccc2)nc2ccccc2c1=O
    -15%, 3%, -7%
> CCc1ccc([C@@H]2CC=C(C(=O)O)[C@H](c3ccccc3F)N2S(=O)(=O)c2ccc(C)cc2)cc1
    0%, 5%, -24%
> O=C(COC(=O)COc1ccccc1[N+](=O)[O-])NC1CCCCC1
    -7%, 8%, 2%[6.58 µM]
> CCN(CC(=O)NC1CCS(=O)(=O)C1)C(=O)c1ccc(OC)c([N+](=O)[O-])c1 (stereo not drawn)
    -13%, 3%, 0%
> COc1ccccc1N1CC(C(=O)Nc2ccc(N3CCOCC3)cc2)CC1=O (stereo not drawn)
    -20%, -16%, 0%
> CCc1ccccc1OCC(=O)Nc1cccc(S(=O)(=O)NC2=NCCC2)c1
    26%, 0%, 10%
> COCCCNC(=O)Cn1cnc2c(NCc3ccccc3)ncnc21
    -13%, 5%, -17%
> Cc1ccc(CNC(=O)COC(=O)COc2ccc(C#N)cc2)cc1
    -23%, 3%, -9%
> C=CCc1cccc(C=Nc2ccc(Br)cc2)c1O
    8%, 0%, 0%

# Next structures follow:
# Values in the order: 2A StopGo, RE007 growth inh, SARS PLpro yeast
> Cc1ccc(S(=O)(=O)N2CCN(C(=O)COC(=O)Cc3ccc(Cl)cc3)CC2)c(C)c1
    -14%, -4%, -4%
> Cc1cc(C)n(-c2ccc(C(=O)N3CCN(c4ccccn4)CC3)cc2)n1
    ?, 1%, 0%
> COc1c(F)c(F)c(C(=O)Nc2ccc(-c3nc4ccccc4[nH]3)cc2)c(F)c1F
    2%, 6%, 0%
> COc1ccc(C(=O)c2c3ccc(C(F)(F)F)cc3[n+]([O-])n2CCCN)cc1
    20%, 20%, 4%
> COc1ccc(CN(C)C(=O)Cn2cnc3c(OCc4ccccc4)ncnc32)cc1OC
    -22%, 0%, 1%
> Cc1ccc(COC(=O)CN2C(=O)NC3(CCCC3)C2=O)cc1
    1%, -6%, 1%
> CCOC(=O)[C@H]1[C@H]2COc3ccc(C)cc3[C@@H]2N2C(=O)CN(Cc3ccc(C)cc3)C(=O)[C@@]12C
    0%, -19%, -3%
> CC(=O)c1cccc(OC(=O)c2cc(S(=O)(=O)N3CCOCC3)ccc2N2CCCC2)c1
    -9%, 7%, -1%
> Cc1ccc2c(c1)C1CN(C)CCC1N2C(=S)NC(=O)c1ccc(Br)cc1 (stereo not drawn)
    ?, 4%, 23%
> C[C@]12c3[nH]c4cc(-c5ccco5)ccc4c3CCN1C(=O)[C@@H](CC(=O)NCC13CC4CC(CC(C4)C1)C3)C[C@@H]2C(=O)N1CCOCC1
    ?, 29%, 9%
